Source: PubChem BioAssay (The Scripps Research Institute Molecular Screening Center)
5HT1E ag: 5-HT1E receptor agonists, primary screen, cell-based, HTS. 5-hydroxytryptamine receptor 1E (Homo sapiens), P28566. CHO 5-HT1E Ga15 NFAT-bla reporter, FRET; 0% DMSO wells, 100% control agonist wells. activation, % at 6 µM. 0.69% of 65,000 active. AID 574, 2007;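 active = activation above a set limit, the screen-wide mean activation plus 3 SD, cut at about 8.5% in these data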;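 also: 100% = positive control agonist at 1 µM giving full maximal response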
5-HT1A blocker: human 5-HT1a receptor antagonists, primary screen, cell-based, CHO, Ga15 NFAT-bla reporter | 5-hydroxytryptamine receptor 1A (Homo sapiens), P08908 | CHO 5-HT1a Ga15 NFAT-bla reporter, antagonist mode | inhibition, % at 10 µM | 0.68% of 62,000 active | AID 612, 2007;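 active = inhibition above the mean of all tested compounds plus 3 SD, cut at about 43% in these data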;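 also: receptor stimulated by 5-CT agonist at 100 nM near EC80; beta-lactamase reporter measured by ratiometric fluorescence of a cleavable substrate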
Target sequence (P08908 whole entry, looked up): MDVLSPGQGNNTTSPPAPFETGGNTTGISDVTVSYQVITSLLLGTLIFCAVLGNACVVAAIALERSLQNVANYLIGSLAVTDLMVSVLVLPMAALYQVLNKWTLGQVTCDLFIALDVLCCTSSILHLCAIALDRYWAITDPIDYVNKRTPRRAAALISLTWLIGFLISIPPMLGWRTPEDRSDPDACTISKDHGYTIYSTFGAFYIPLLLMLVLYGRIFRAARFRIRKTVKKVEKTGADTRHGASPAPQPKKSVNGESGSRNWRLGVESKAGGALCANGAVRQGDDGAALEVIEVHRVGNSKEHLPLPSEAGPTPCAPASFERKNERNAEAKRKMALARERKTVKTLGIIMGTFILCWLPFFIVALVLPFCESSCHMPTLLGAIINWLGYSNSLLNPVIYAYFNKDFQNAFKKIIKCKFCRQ
Jurkat viability: cytotoxicity toward Jurkat T cells, primary screen, cytotoxicity control, cell-based, Jurkat E6.1, 60K MLSMR library; inhibition, % at 4 µM; Jurkat E6.1 viability, ATP luminescence, 48 h; 1.2% of 56,000 active;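 active = inhibition above the mean inhibition of all tested compounds plus 3 SD, cut at about 28% in these data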
S1P3 agonist: human S1P3 receptor agonists, primary screen, cell-based, primary and confirmation, NFAT-BLA reporter; activation, % at 4.5 µM; 0.1% of 60,000 active; S1P3 NFAT-BLA reporter cells, agonism, FRET ratio; relative to 1 µM S1P, basal subtracted; AID 373, 2006; Sphingosine 1-phosphate receptor 3 (Homo sapiens), Q99500;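 active = activation above the screen-wide mean plus 3 SD, cut at about 4.5% in these data, passing the limit was not always enough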; also: some compounds called inactive have numbers as strong as hits
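Material: Human S1P3 NFAT-BLA reporter CHO cells | Incubation: Overnight plating, 4 h compound 37 °C, 2 h substrate RT | Signal: FRET β-lactamase substrate fluorescence, excitation 405 nm, 460/535 nm emission ratio, background-subtracted | Compound: 4.5 µM final, single dose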
5HT1E antag: 5-HT1E receptor antagonists, primary screen, cell-based, HTS. inhibition, % at 6 µM. CHO 5-HT1E Ga15 NFAT-bla reporter, FRET, antagonist. 0.99% of 65,000 active. 5-hydroxytryptamine receptor 1E (Homo sapiens), P28566;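 active = inhibition above a set limit, the mean inhibition across every tested compound plus 3 SD, cut at about 29% in these data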;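 also: signal is the 460 over 535 nm emission ratio of beta-lactamase substrate; 0% = agonist plus DMSO wells and 100% = wells without agonist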
S1P1 ag-PAM: S1P1 agonists and agonism potentiators, primary screen, cell-based, primary and confirmation screens, CRE-bla reporter | Sphingosine 1-phosphate receptor 1 (Homo sapiens), P21453 | S1P1 CRE-bla cells, forskolin, beta-lactamase FRET, potentiator mode; S1P1 agonist co-added at EC20, 2 nM; 100% = saturating reference agonist, 0% = basal | activation, % at 9.5 µM | 0.57% of 56,000 active | AID 449, 2006;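 active = activation above a cutoff set at the mean activation of all tested compounds plus 3 SD, cut at about 54% in these data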;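 also: forskolin at 4 µM as EC80 and the EC20 agonist is SEW2871; 100% = SEW2871 at its EC100 plus forskolin at EC80; some compounds past the cut are filed as inactive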
Target sequence (P21453 whole entry, looked up): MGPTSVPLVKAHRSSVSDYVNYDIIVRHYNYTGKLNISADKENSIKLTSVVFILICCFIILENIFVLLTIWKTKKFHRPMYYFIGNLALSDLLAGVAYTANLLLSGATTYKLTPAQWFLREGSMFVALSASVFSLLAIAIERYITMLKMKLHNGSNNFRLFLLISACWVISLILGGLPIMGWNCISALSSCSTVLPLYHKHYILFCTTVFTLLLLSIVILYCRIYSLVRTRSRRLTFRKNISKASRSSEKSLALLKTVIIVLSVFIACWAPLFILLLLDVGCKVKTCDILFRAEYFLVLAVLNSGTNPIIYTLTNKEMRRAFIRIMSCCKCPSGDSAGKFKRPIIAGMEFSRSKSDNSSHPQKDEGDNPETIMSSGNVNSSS
An asterisk follows results filed as active; · = not tested or not shown; & = joins results of further samples.

No. | compound | 5HT1E ag | 5-HT1A blocker | Jurkat viability
1 | CC(C)(C)NCC(O)c1cc(O)cc(O)c1 (stereo unspecified) | -0.9 | · | ·
2 | CN(C)CCC(c1ccc(Br)cc1)c1ccccn1 (stereo unspecified) | -0.6 | · | ·
3 | CN(C)C(=O)Oc1ccc[n+](C)c1 | -0.3 | · | ·
4 | CC(=O)O[C@H]1C(=O)[C@]2(C)[C@H]([C@H](OC(=O)c3ccccc3)[C@]3(O)C[C@H](OC(=O)[C@H](O)[C@@H](NC(=O)c4ccccc4)c4ccccc4)C(C)=C1C3(C)C)[C@]1(OC(C)=O)CO[C@@H]1C[C@@H]2O | 0.7 | · | ·
5 | Cc1cc(NC(=O)CS(=O)(=O)c2cn(Cc3cccc(F)c3)c3ccccc23)no1 | -0.6 | 13 | ·
6 | CC(=O)OC[C@H]1O[C@@H](n2ncc(=O)[nH]c2=O)[C@H](OC(C)=O)[C@@H]1OC(C)=O | 0.7 | · | ·
7 | CC(=O)[C@@]1(O)CC[C@H]2[C@@H]3C[C@H](C)C4=CC(=O)CC[C@]4(C)[C@H]3CC[C@@]21C | 1.9 | · | ·
8 | CC(C)(C)NC[C@H](O)COc1nsnc1N1CCOCC1 | 0.1 | · | ·
9 | CCC(=O)O[C@@H]1CC(=O)O[C@H](C)CC=CC=C[C@@H](O)[C@H](C)C[C@H](CC=O)[C@H](O[C@H]2O[C@H](C)[C@@H](O[C@H]3C[C@@](C)(O)[C@@H](OC(=O)CC)[C@H](C)O3)[C@H](N(C)C)[C@H]2O)[C@H]1OC | -0.8 | · | ·
10 | Fc1ccc(C(c2ccc(F)cc2)N2CCN(C/C=C/c3ccccc3)CC2)cc1 | 0.8 | · | ·
11 | CCCCOc1ccc(OCCCN2CCOCC2)cc1 | 0.6 | · | ·
12 | Cc1cccc(Nc2ccccc2C(=O)O)c1C | 0.3 | · | ·
13 | C[C@]12CCC(=O)C=C1CC[C@@H]1[C@@H]2[C@@H](O)C[C@@]2(C)[C@H]1CC[C@]2(O)C(=O)CO | 0.1 | · | ·
14 | CC1(C)O[C@@H]2C[C@H]3[C@@H]4C[C@H](F)C5=CC(=O)CC[C@]5(C)[C@H]4[C@@H](O)C[C@]3(C)[C@]2(C(=O)CO)O1 | -1.4 | · | ·
15 | CCN(CC)CC(=O)Nc1c(C)cccc1C | 1.0&-1.0 | · | ·

No. | S1P3 agonist | 5HT1E antag | S1P1 ag-PAM
1 | -4.8 | -3 | 30
2 | -3.5 | 3 | 2
3 | -1.7 | -3 | -5
4 | -3.0 | -8 | 5
5 | · | -8 | ·
6 | -2.2 | -19 | 40
7 | -1.4 | 2 | 8
8 | -2.5 | -12 | 1
9 | -2.1 | -4 | 6
10 | -3.5 | 6 | -8
11 | -0.9 | -9 | 4
12 | 3.5 | 3 | -5
13 | -1.9 | 7 | 10
14 | -1.7 | -2 | 21
15 | -0.2&1.3 | 1&-1 | -18&-17

11 structures out of the list, ordered by number of heavy atoms, low to high.
No. | compound | 5HT1E ag | 5-HT1A blocker | Jurkat viability
3 | CN(C)C(=O)Oc1ccc[n+](C)c1 | -0.3 | · | ·
1 | CC(C)(C)NCC(O)c1cc(O)cc(O)c1 (stereo unspecified) | -0.9 | · | ·
15 | CCN(CC)CC(=O)Nc1c(C)cccc1C | 1.0&-1.0 | · | ·
12 | Cc1cccc(Nc2ccccc2C(=O)O)c1C | 0.3 | · | ·
2 | CN(C)CCC(c1ccc(Br)cc1)c1ccccn1 (stereo unspecified) | -0.6 | · | ·
11 | CCCCOc1ccc(OCCCN2CCOCC2)cc1 | 0.6 | · | ·
7 | CC(=O)[C@@]1(O)CC[C@H]2[C@@H]3C[C@H](C)C4=CC(=O)CC[C@]4(C)[C@H]3CC[C@@]21C | 1.9 | · | ·
6 | CC(=O)OC[C@H]1O[C@@H](n2ncc(=O)[nH]c2=O)[C@H](OC(C)=O)[C@@H]1OC(C)=O | 0.7 | · | ·
10 | Fc1ccc(C(c2ccc(F)cc2)N2CCN(C/C=C/c3ccccc3)CC2)cc1 | 0.8 | · | ·
14 | CC1(C)O[C@@H]2C[C@H]3[C@@H]4C[C@H](F)C5=CC(=O)CC[C@]5(C)[C@H]4[C@@H](O)C[C@]3(C)[C@]2(C(=O)CO)O1 | -1.4 | · | ·
4 | CC(=O)O[C@H]1C(=O)[C@]2(C)[C@H]([C@H](OC(=O)c3ccccc3)[C@]3(O)C[C@H](OC(=O)[C@H](O)[C@@H](NC(=O)c4ccccc4)c4ccccc4)C(C)=C1C3(C)C)[C@]1(OC(C)=O)CO[C@@H]1C[C@@H]2O | 0.7 | · | ·

No. | S1P3 agonist | 5HT1E antag | S1P1 ag-PAM
3 | -1.7 | -3 | -5
1 | -4.8 | -3 | 30
15 | -0.2&1.3 | 1&-1 | -18&-17
12 | 3.5 | 3 | -5
2 | -3.5 | 3 | 2
11 | -0.9 | -9 | 4
7 | -1.4 | 2 | 8
6 | -2.2 | -19 | 40
10 | -3.5 | 6 | -8
14 | -1.7 | -2 | 21
4 | -3.0 | -8 | 5

Next structures follow:
No. | compound | 5HT1E ag | 5-HT1A blocker | Jurkat viability
16 | Cc1ncc([N+](=O)[O-])n1CC(O)CCl (stereo unspecified) | -0.9 | · | ·
17 | CC1=NS(=O)(=O)c2cc(Cl)ccc2N1 | 0.5 | · | ·
18 | CC(=O)OCC(=O)[C@@]1(OC(C)=O)[C@@H](C)C[C@H]2[C@@H]3C[C@H](F)C4=CC(=O)C=C[C@]4(C)[C@@]3(F)[C@@H](O)C[C@@]21C | -0.7 | · | ·
19 | Nc1ccc(S(=O)(=O)Nc2ccccn2)cc1 | 2.5 | · | ·
20 | CC(C(=O)O)c1ccc(-c2ccccc2)c(F)c1 (stereo unspecified) | -0.6&-0.6 | 3 | 10
21 | COc1cccc(/C=N\n2c(C)nnc2C)c1OC | 1.1 | -7 | 7
22 | CC[C@H](C)C(=O)O[C@H]1C[C@@H](C)C=C2C=C[C@H](C)[C@H](CC[C@@H]3C[C@@H](O)CC(=O)O3)[C@H]21 | -0.1 | · | ·
23 | CCN1CCN(c2cc3c(cc2F)c(=O)c(C(=O)O)cn3C2CC2)CC1 | 0.5 | · | ·
24 | Nc1nnc(-c2cccc(Cl)c2Cl)c(N)n1 | 0.0 | · | ·
25 | CC(=NC1CCCC1)c1c(C)[nH]n(-c2nc3ccccc3s2)c1=O | -0.2 | · | ·
26 | CC(C)(C)c1ccc(-c2nnc3sc(-c4ccccn4)nn23)cc1 | 0.2 | -17 | 4
27 | Nc1ccc(C(=O)O)c(O)c1 | 0.1&-0.1 | · | ·
28 | COC(=O)CCC(=O)CN | -0.3 | · | ·
29 | CC(C)Oc1ccc2c(=O)c(-c3ccccc3)coc2c1 | 0.3 | · | ·
30 | CCCC(=O)Nc1ncnc2c1ncn2[C@@H]1O[C@@H]2COP(=O)(O)O[C@H]2[C@H]1OC(=O)CCC | -0.5 | · | ·
31 | CCOC(=O)N1CCC(NCCNC(=O)c2ccccc2Cl)CC1 | -0.9 | -8 | 6

No. | S1P3 agonist | 5HT1E antag | S1P1 ag-PAM
16 | -2.9 | -7 | 6
17 | -0.6 | -7 | -5
18 | -1.4 | -9 | 19
19 | -1.1 | 2 | -7
20 | -1.2&-6.3 | -1&16 | 6&21
21 | -1.3 | -8 | -1
22 | 7.1 | 22 | -8
23 | 0.4 | -10 | -20
24 | -2.8 | 1 | -11
25 | -5.2 | 15 | -1
26 | 0.0 | -7 | -20
27 | -1.8&-0.8 | -7&-2 | -8&-8
28 | -2.0 | -4 | 6
29 | 1.5 | 11 | 2
30 | -2.8 | -1 | -21
31 | 0.0 | 9 | 2

Some of the entries so far, as tab-separated lines:
cpd	molecule	5HT1E ag	5-HT1A blocker	Jurkat viability	S1P3 agonist	5HT1E antag	S1P1 ag-PAM
30	CCCC(=O)Nc1ncnc2c1ncn2[C@@H]1O[C@@H]2COP(=O)(O)O[C@H]2[C@H]1OC(=O)CCC	-0.5	·	·	-2.8	-1	-21
31	CCOC(=O)N1CCC(NCCNC(=O)c2ccccc2Cl)CC1	-0.9	-8	6	0.0	9	2

Taken from above.
cpd 14 in 5HT1E antag has -2
cpd 29 in 5HT1E ag has 0.3

Not all compounds are listed (hit frequency here may not be typical).
